# gsp agonist: activates gsp, the McCune-Albright syndrome mutation | Potency, µM (doses to about 76.9 µM), without a hit: at the top dose activation (cAMP increase), hits mostly activators | 340,000 compounds, 0.13% hits | gsp mutant cells, cAMP HTRF, 30 min; control for the full effect not named in the record; active = well fitted activation curve with a large enough effect; inconclusive = small, poorly fitted or top-dose-only effect, or another doubt; inactive = no such curve, though single readings can be large or run the other way; cell line not stated here;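 note: phosphodiesterase inhibitor Ro 20-1724 added with compounds to block cAMP breakdown; potency is the fitted concentration of half-maximal effect; nearly all actives have a fitted effect of over 60% in size; about a fifth of the inactives were tested at one dose only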
#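 Cells stably selected in G418 were plated at 2000/well, grown 16-24 hr, then given compounds in DMSO with the PDE inhibitor […] (300 uM solution added) for 30 min at 37C; cAMP was read by HTRF.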
# TRPV1 PAM: human TRPV1 potentiation. 320,000 compounds, 0.02% hits. Q8NER1. TRPV1-expressing cells, Fluo-8 calcium influx, capsaicin EC20 potentiation; host cell line not named in the record; control for the full effect not named in the record. potentiation, % at 8.33 µM; active means potentiation above 80%; inconclusive means 30% to 80%; inactive means below 30%; note: 0% is about no effect
#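 TRPV1-expressing cells were cultured overnight at 35.5C and loaded with Fluo-8 calcium dye for 40 to 90 min at room temperature. After a 10 s baseline, compound was added and calcium influx was read kinetically for 3 min (ex 480/em 520 nm).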
# gsp antag: antagonizes gsp, the McCune-Albright syndrome mutation. 340,000 compounds, 0.4% hits. AID 624288. Potency, µM (series often up to 76.9 µM), for inactives: top-dose activity change, negative = inhibition, hits mostly inhibitors. gsp-mutant cells, cAMP HTRF, 30 min; control for the full effect not named in the record; active = falling curve of any shape with a large fitted effect; inconclusive = falling curve, mostly with a smaller effect; inactive = flat or rising curve; cell line not stated here;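 note: intracellular cAMP measured with PDE inhibitor Ro 20-1724 present during compound exposure; potency is the fitted concentration of half-maximal effect; % is set by controls: 0 for no effect and ±100 for the full control effect; nearly all actives have a fitted effect of over 65% in size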
#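 Measurement of cellular cAMP by homogeneous time-resolved fluorescence following a 30 min compound exposure at 37C. The PDE inhibitor […] was present throughout; the assay buffer was DPBS with 0.05% BSA and 0.005% Tween 20.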
# D2 potentiator: potentiates the human D2 dopamine receptor allosterically; P14416; DiscoveRx D2 beta-arrestin cells, luminescence, 90 min; 100% = 57 uM dopamine signal; potentiation, % (test concentration not listed); 360,000 compounds, 0.23% hits; AID 624464; active = potentiation of 50% or more; inconclusive = 30% to 50%; inactive = 30% or less;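 note: compound concentration not given in the record; tested on top of an EC20 dose of dopamine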
# Target sequence (P14416 whole entry, looked up): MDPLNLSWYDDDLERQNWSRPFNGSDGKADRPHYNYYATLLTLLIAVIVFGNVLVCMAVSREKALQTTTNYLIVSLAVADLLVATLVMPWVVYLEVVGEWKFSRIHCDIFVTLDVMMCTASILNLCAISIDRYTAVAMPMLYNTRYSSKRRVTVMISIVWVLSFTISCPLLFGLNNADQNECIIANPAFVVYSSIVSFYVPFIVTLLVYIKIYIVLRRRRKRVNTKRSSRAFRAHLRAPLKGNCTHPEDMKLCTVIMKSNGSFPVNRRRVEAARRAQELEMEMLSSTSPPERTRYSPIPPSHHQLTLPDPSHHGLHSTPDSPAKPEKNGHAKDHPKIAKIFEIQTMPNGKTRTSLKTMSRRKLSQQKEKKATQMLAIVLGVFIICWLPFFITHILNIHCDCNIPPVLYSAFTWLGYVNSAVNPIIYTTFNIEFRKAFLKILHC
#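 PathHunter D2 cells, attached overnight at 37 deg C, received compound in DMSO plus dopamine at EC20 (50 nM final) for 90 min at 37 deg C. Beta-arrestin recruitment was read as luminescence after 1 h with detection reagent at ambient temperature.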
# Menin MLL FP FL: menin-MLL binding inhibition, fluorescein peptide. Fluorescence polarization, fluorescein-MLL peptide displacement from menin. FP activity change, % at 61.4 µM. 290,000 tested, under 10 active; inconclusive = falling polarisation curve, or a change in total fluorescence; inactive = total fluorescence flat and polarisation flat or rising; no compound was filed as active; the % refers to the polarisation; negative = inhibition;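 note: % of control where 0% means no effect; inhibitors lower the polarisation; unlabelled MLL peptide was the positive control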
# Sfp inh: Sfp phosphopantetheinyl transferase inhibition. Q9F4F7. Biochemical Sfp PPTase activity, qHTS. Potency, µM, for inactives: max response, negative = inhibition, hits mostly inhibitors. 310,000 compounds, 3.5% hits. AID 1490; active = well fitted inhibition curve with a large enough effect; inconclusive = small, poorly fitted or top-dose-only effect, or another doubt; inactive = no such curve, though single readings can be large or run the other way;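 note: the enzyme is Sfp with the accession as filed and its product quenches rhodamine fluorescence; potency is the fitted concentration of half-maximal effect; 0% = enzyme reaction without inhibitor and -100% = no enzyme wells; top concentration of the series not given in the record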
#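 Fluorescence-quenching assay with 15 nM Sfp, 5 uM rhodamine-CoA and 12.5 uM BHQ-2-labelled ybbR peptide in pH 7.6 Hepes/MgCl2 buffer. Enzyme was pre-incubated with compound for 15 min at room temperature. Rate was taken from the 30-min fluorescence change (525/598 nm).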
# ClpP mod: qHTS Assay for Activators of ClpP; ATP-dependent Clp protease proteolytic subunit (Bacillus subtilis (strain 168)), P80244; purified B. subtilis ClpP, FRET peptide cleavage, 20 min; Potency, µM (top dose mostly 57.5 µM), inactives show at the top dose activity change, negative = active; 340,000 compounds, 1.9% hits; active = well fitted falling curve with a large enough effect; inconclusive = small, poorly fitted or top-dose-only effect; inactive = no such curve, though single readings can be large or run the other way; note: potency is the fitted concentration of half-maximal effect; the source files actives as falling curves though it sought activators and does not explain the sign; nearly all actives have a fitted effect of over 65% in size; many hits overshoot -100%
# Target sequence (P80244 whole entry, looked up): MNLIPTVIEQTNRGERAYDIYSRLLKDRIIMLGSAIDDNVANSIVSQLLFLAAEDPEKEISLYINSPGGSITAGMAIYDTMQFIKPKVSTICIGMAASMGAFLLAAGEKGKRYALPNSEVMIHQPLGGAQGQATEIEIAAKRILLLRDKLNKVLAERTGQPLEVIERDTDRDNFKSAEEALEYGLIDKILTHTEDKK
#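 Buffer: 100 mM Tris/HCl pH8, 100 mM KCl, 0.05% low protease BSA, 2.5% glycerol, 0.01% Tween-20. ClpP 10 microg/mL final; 20 min RT; delta FRET normalized to ADEP and DMSO controls.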
# An asterisk follows results filed as active; u = inconclusive; x = no result given; & = joins results of further samples; [ ] = dose if it differs, or a comment. Rows were taken by chance. About 5.1% of those tested had a hit in this group.
Molecule	gsp agonist	TRPV1 PAM	gsp antag	D2 potentiator	Menin MLL FP FL	Sfp inh	ClpP mod
CSC(=NC#N)N1CCN(c2cccc(Cl)c2)CC1	4%	6	-8%	20	4.2	0%	-4.2%
CCOc1ccc(C=NNC(=O)c2cccc3ccccc23)cc1OCC	-28%	x	-6%	8	x	x	-6.4%
Fc1cccc(F)c1[B-](F)(F)F	x	x	21%	4	x	x	1.3%
CSC(=NC(C)c1ccccc1)NS(=O)(=O)c1cccs1 (stereo not given)	6%	19	-7%	-13	1.8	17%	-1.4%
O=c1oc2ccccc2c(O)c1/C=N/c1ncccn1	13%	13	0%	3	19	-13%	-6.2%
CSc1ccc(CN2CCC(n3nccc3NC(=O)c3ccccc3C)CC2)cc1	67%	26	3%	-29	0.2	13%	0.1%
Cc1ccc(-n2c(C)c(C)c3c(NCCCO)ncnc32)cc1	-18%	-3	-2%	10	-3.4	0%	x
CN(Cc1ccccc1)C(=O)c1[nH]cnc1C(=O)Nc1cccc(Cl)c1	-10%	-5	-8%	-29	x	x	-0.7%
Cc1cccn2c(=O)c3cc(C(=O)NC4CCCCC4)n(C)c3nc12	u	-7	8%	-3	x	10%	-24%
COc1cc([N+](=O)[O-])ccc1NC(=O)NCc1ccccn1	-11%	-5	9%	-39	4.4	0%	-0.4%
COc1cc(C(=O)O)ccc1Cl	11%	24	-1%	-4	3.6	32%[activator]	0.6%
CC(C)(C)c1ccc(C(=O)CS(=O)(=O)c2ccccc2)cc1	10%	-18	0%	-31	2.3	-3%	-10%
CN(Cc1ccccc1)C1=CC(=[N+]2CCCC2)CC(C)(C)C1	22%	-1	-13%	-8	1.4	-1%	x
COc1ccc(-n2c(SCC(=O)Nc3ncc(Cl)cc3Cl)nc3ccccc32)cc1	x	-1	x	x	7.4	u	x
CC1CCCN(C(=O)c2ccc3c(=O)n(Cc4ccc5c(c4)OCO5)c(=S)[nH]c3c2)C1 (stereo not given)	-3%	10	-12%	-10	3.5	16%	-0.1%
CN(c1ccccc1)c1nc2ccsc2c(=O)s1	2%	12	-7%	3	1.1	-1%	-4.2%
Cc1cc(C)cc(NC(=O)CSc2ccc(-c3ccco3)nn2)c1	-8%[15.4 µM]	23	-8%	-4	1.1	22µM*	-3.9%
O=C(NCc1ccc(F)cc1)C(c1ccccc1)N(C(=O)c1csnn1)C1CCCC1 (stereo not given)	-2%[15.4 µM]	2	-3%	5	-1.3	-8%	-3.5%
CCC(C)Nc1nc(N)c([N+](=O)[O-])c(Nc2ccccc2OC)n1 (stereo not given)	6%[15.4 µM]	20	7%	-11	-0.4	-4%	x
O=C(N/N=C/c1ccc2nccnc2c1)c1cccc([N+](=O)[O-])c1	21%[15.4 µM]	-11	-38%	-3	-3.8	-3%	x
COc1ccc(C)cc1S(=O)(=O)N1CC(C)OC(C)C1 (stereo not given)	20%	12	3%	-5	1.3	0%	x
CCN(CC)C1CCN(C(=O)CCc2nnc(CCc3ccccc3)o2)C1 (stereo not given)	-24%	2	-4%	-9	-0.9	2%	-3.8%
CCCCn1c(SCC(=O)N2CCOCC2)nc2c1c(=O)n(C)c(=O)n2C	33%[15.4 µM]	0	-7%	-7	-0.4	12%	x
Cc1cccc2sc(N(CCN(C)C)C(=O)c3cc(Cl)sc3Cl)nc12	-47%[inhibitor]	-2	1%	-28	2.2	-24%	1.4%
C[C@H](O)[C@@H]1CN2CCc3c([nH]c4ccccc34)[C@@H]2C[C@@H]1N(C)C(=O)Nc1cc(Cl)cc(Cl)c1	-23%	x	x	-5	x	x	-19%
C[C@H]1CCC(=O)N([C@H](CSc2ccc(Br)cc2)Cc2ccccc2)CC1	21%	-2	-17%	-6	x	x	2.4%&0.2%
CCCCN(C(=O)CNC(=O)c1ccco1)C(C(=O)NC1CCCC1)c1ccc(OC)cc1 (stereo not given)	-34%[inhibitor]	-8	3%	-2	0.0	-1%	-0.9%
NC(=O)C1=CN(Cc2ccc(Cl)cc2)CCC1C(F)(F)F (stereo not given)	3%[15.4 µM]	11	0%	-3	-1.1	12%	-2.5%
CC(Sc1nncn1C)C(=O)Nc1nnc(C(C)C)s1 (stereo not given)	-108%[inhibitor]	-2	8%	-8	2.6	9%	-0.7%
COc1c(C)cccc1C(=O)NCCCNC(=O)c1ccc(C)nc1	1%	2	-6%	-4	0.0	12%	x

# Next part:
Molecule	gsp agonist	TRPV1 PAM	gsp antag	D2 potentiator	Menin MLL FP FL	Sfp inh	ClpP mod
CCOP(=O)(OCC)/C(C#N)=C(\O)c1ccc(OC)cc1	u	-8	7%	-14	-2.1	4%	-3.4%
O=C1N(Cc2cccc(Cl)c2)C[C@@H]2C[C@@H](c3c[nH]c4ccccc34)N3CCC[C@@]123	17%[15.4 µM]	7	-8%	-1	u	-17%	x
O=c1c2ccccc2nc(/C=C/c2ccc(Br)cc2)n1CCCO	u	-6	-27%	7	2.9	0%	13%
O=C(CCNS(=O)(=O)c1ccccc1F)NC1CCCCCC1	-7%	3	4%	-1	x	x	-2.7%
COc1cc(CN(C)Cc2cc(=O)oc3cc(C)c(Cl)cc23)ccc1OC(F)F	3%[15.4 µM]	-3	-14%	0	3.8	-4%	x
COc1ccc(S(=O)(=O)N2CCC3(CC2)CC(=O)c2ccccc2O3)cc1	5%	-15	2%	9	x	x	u
Cc1ccc(C)c(OCC(=O)Nc2cccc(S(=O)(=O)NC3=NCCCCC3)c2)c1	8%	-1	-17%	0	-5.2	9%	-2.8%
Cn1nnnc1SCC(=O)NNC(=O)c1ccc(Br)cc1	-1%[15.4 µM]	2	2%	-5	0.6	17%	x
Nc1ccccc1C(=O)NNC(=O)C(=O)/C=C(\O)c1ccccc1	25%[15.4 µM]	7	-14%	-15	8.9	12%	-0.9%
O=C(CCCN1C(=O)C2CC=CCC2C1=O)Nc1ccccc1Cl (stereo not given)	23%	1	7%	10	x	5%	1.3%
O=C(NCc1ccccc1)c1cc(=O)nc2sc(-c3ccccc3)nn12	-68%	13	-14%	-22	4.4	-12%	-15%
C=CCn1c(SCCC)nc2sc3c(c2c1=O)CCc1ccccc1-3	-14%[15.4 µM]	27	-7%	2	1.3	-24%	-1.8%
CC(OC(=O)Cn1cnc2c1c(=O)n(C)c(=O)n2C)C(=O)NC1(C#N)CCCCC1 (stereo not given)	-9%[15.4 µM]	25	7%	-28	x	x	-1.3%
Nc1nnc(SCC(=O)NNC(=O)c2ccccc2)s1	25%[15.4 µM]	-26	9%	-9	x	x	-9.5%
CCc1cc(-c2nc(N)ncc2-c2csc(C)n2)c(O)cc1OC	-48%[inhibitor]	-1	-6%	-6	1.5	-1%	-0.3%
Cc1ccc(NC(=O)c2ccccc2NS(=O)(=O)c2ccc(Cl)s2)cc1	8%[15.4 µM]	u	u	1	-0.7	13%	1.7%
Cc1ccc(Cl)cc1NC(=O)COC(=O)CC1CCCCC1	-207%[inhibitor]	-18	11%	-2	x	x	1.5%
COCCNc1nc(-c2ccccc2)nc2ccccc12	-11%	-1	-5%	-2	-1.8	2%	x
CNc1ncc(C(=O)C(C)(C)C)s1	22%	-2	2%	-8	-1.2	4%	-1.6%
CCOC(=O)C1C(c2ccccc2)C(C(=O)OCC)C1c1ccccc1 (stereo not given)	-5%	2	-1%	4	3.9	4%	-0.5%
COC(=O)Cc1ccc(NC(=S)NCCO)cc1	5%[15.4 µM]	12	12%	10	3.1	4%	0.2%
CC(C)Oc1ccc(CN2CCC(n3nccc3NC(=O)c3cccnc3)CC2)cc1	6%	10	-2%	-19	x	1%	-1.3%
CCn1ccc(C(=O)Nc2ccc(S(=O)(=O)Nc3ccccc3OC)cc2)n1	-26%	-28	-16%	0	0.3	6%	-2.2%
O=C(Nc1ccc2c(c1)CCC2)c1cccc(OC(F)F)c1	4%	x	-12%	-28	x	x	1.1%
CN1CCN(S(=O)(=O)NC[C@H]2O[C@@H](n3cnc4c(N)ncnc43)[C@H](O)[C@@H]2O)CC1	x	x	-2%	-8	x	x	-4.7%
CC(C)(C)c1cc(C(=O)Nc2ccccc2)ccn1	16%	-8	-14%	0	13	15%	-1.6%
CCOc1ncccc1C(=O)Nc1cc(S(=O)(=O)N2CCOCC2)ccc1OCC(F)(F)F	13%	x	2%	-4	x	x	x
CCOC(=O)C1CCCCN1C(=O)/C(=C/c1ccc(OC)cc1)c1ccc(OC)c(OC)c1 (stereo not given)	x	x	-11%	27	x	x	-0.7%
COCCNC(=O)c1ccccc1-c1nc(-c2ccccc2Cl)no1	1%	-13	0%	3	-0.1	-3%	2.0%
CC(=O)c1ccc(NC(=O)c2ccc3c(Cl)c4c(nc3c2)CCCC4)cc1	u	-9	u	-6	-0.5	1%	-1.2%
CN(C(=O)C1CCOC1)c1nnc(-c2cccnc2)s1 (stereo not given)	6%	x	8%	-1	2.0	-6%	2.3%

# Arranged by number of heavy atoms (low to high): 3 of the compounds above.
Molecule	gsp agonist	TRPV1 PAM	gsp antag	D2 potentiator	Menin MLL FP FL	Sfp inh	ClpP mod
CNc1ncc(C(=O)C(C)(C)C)s1	22%	-2	2%	-8	-1.2	4%	-1.6%
COc1cc([N+](=O)[O-])ccc1NC(=O)NCc1ccccn1	-11%	-5	9%	-39	4.4	0%	-0.4%
Nc1ccccc1C(=O)NNC(=O)C(=O)/C=C(\O)c1ccccc1	25%[15.4 µM]	7	-14%	-15	8.9	12%	-0.9%

# Full records as entered above.
# COc1cc([N+](=O)[O-])ccc1NC(=O)NCc1ccccn1 is entered as gsp agonist: -11%; TRPV1 PAM: -5; gsp antag: 9%; D2 potentiator: -39; Menin MLL FP FL: 4.4; Sfp inh: 0%; ClpP mod: -0.4%
# CNc1ncc(C(=O)C(C)(C)C)s1 is entered as gsp agonist: 22%; TRPV1 PAM: -2; gsp antag: 2%; D2 potentiator: -8; Menin MLL FP FL: -1.2; Sfp inh: 4%; ClpP mod: -1.6%
